# Cruzain Triton: cruzain (T. cruzi) inhibition with detergent | purified cruzain, Z-FR-AMC fluorescence, 0.01% Triton | 200,000 tested, 0.43% active | P25779 | Potency, µM, for inactives: max response, negative = inhibition, most hits filed as inhibitors; active means well fitted curve in the direction sought with a large enough effect; inconclusive means small, poorly fitted or top-dose-only effect, or another doubt; inactive means no such curve, though single readings can be large; an effect the other way counts as inactive or inconclusive;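 further: plate controls were neutral wells for no effect and buffer without enzyme for full effect; nearly all actives have a fitted effect of over 40% in size; top concentration of the series not given in the record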
# Target sequence (P25779 123-467 limits assumed): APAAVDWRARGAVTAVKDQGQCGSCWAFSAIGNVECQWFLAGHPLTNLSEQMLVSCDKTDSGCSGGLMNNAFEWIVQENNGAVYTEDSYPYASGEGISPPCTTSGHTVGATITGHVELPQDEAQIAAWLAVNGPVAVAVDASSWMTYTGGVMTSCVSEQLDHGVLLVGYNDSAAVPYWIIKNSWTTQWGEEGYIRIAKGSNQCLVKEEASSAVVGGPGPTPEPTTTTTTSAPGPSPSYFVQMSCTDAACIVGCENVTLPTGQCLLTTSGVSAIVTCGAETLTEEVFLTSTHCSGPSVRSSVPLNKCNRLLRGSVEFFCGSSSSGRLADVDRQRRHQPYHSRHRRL
#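 Purified cruzain (1.5 nM final) was preincubated with compounds for 15 min at room temperature in 100 mM sodium acetate pH 5.5, 5 mM DTT, 0.01% Triton X-100. Reaction started with 2 uM Z-FR-AMC; AMC fluorescence change over 60 s gave activity.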
# Lassa entry inh: Lassa virus entry inhibition; Lassa virus pseudotype entry inhibition, cell reporter; control for the full effect not named in the record; Potency, µM (series often up to 37.9 µM), for the others: at the highest dose activity change, negative = inhibition, hits mostly inhibitors; 300,000 tested, 1.2% active; AID 540256; active means well fitted inhibition curve with a large enough effect; inconclusive means small, poorly fitted or top-dose-only effect, or effect the other way; inactive means flat fitted curve, though single readings scatter; tested in HEK293 cells; further: on the % scale 0 is the no-effect control and ±100 the full control effect; nearly all actives have a fitted effect of over 50% in size; luciferase read-out
# NS1 inh: blocks influenza NS1 protein function; 270,000 tested, 0.4% active; Potency, µM (top dose mostly 46.1 µM), without a hit: at the highest dose activity, positive = more growth; AID 2326; S. cerevisiae slowed by influenza A NS1, growth recovery by OD600; further: actives are rising curves; nearly all actives have a fitted effect of over 50% in size
#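 Compounds were scored for reversing the slow growth caused by influenza A NS1 in S. cerevisiae, measured by optical density at 600 nm. Assay medium contained 2% galactose at pH 6.0; NS1-free yeast of the same strain were the positive control.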
# Cruzain inh noDet: inhibitors of Trypanosoma cruzi cruzain without detergent | 200,000 tested, 2.3% active | Potency, µM, for the others: max response, negative = inhibition, usual class: inhibitors | purified cruzain, Z-FR-AMC fluorescence, no detergent; active means well fitted curve in the direction sought with a large enough effect; inconclusive means small, poorly fitted or top-dose-only effect, or another doubt; inactive means no such curve, though single readings can be large; an effect the other way counts as inactive or inconclusive;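 further: plate controls were enzyme without inhibitor for no effect and buffer without enzyme for full effect; nearly all actives have a fitted effect of over 40% in size; top concentration of the series not given in the record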
#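 Detergent-free condition (0.00005% Triton X-100) in acetate buffer pH 5.5 with DTT. 1.5 nM enzyme and compound were pre-mixed 15 min, then 2 uM Z-FR-AMC substrate added; reaction progress from fluorescence change between first and third reads (60 s).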
# SARS PLP yeast: SARS-CoV PLP inhibition in yeast. S. cerevisiae expressing SARS-CoV PLpro, growth rescue; control for the full effect not named in the record. Potency, µM (top dose mostly 32.9 µM), inactives show at the top dose activity, positive = growth rescue. 330,000 tested, 0.19% active; further: 0% is about no effect; nearly all actives have a fitted effect of over 55% in size; growth read by luminescence after 48 h
# Marburg entry inh: inhibitors of Marburg virus binding or cell entry; Marburg virus pseudotyped entry inhibition, cell reporter; control for the full effect not named in the record; about a third of the inactives were read at about 46 µM; Potency, µM (top dose mostly 37.8 µM), without a hit: at the top dose activity change, negative = inhibition, actives largely listed as inhibitors; 300,000 tested, 1.8% active; active = well fitted inhibition curve with a large enough effect; inconclusive = small, poorly fitted or top-dose-only effect, or effect the other way; inactive = flat fitted curve, though single readings scatter; tested in HEK293 cells; about a fifth of its hits are not listed in these tables; further: on the % scale 0 is the no-effect control and ±100 the full control effect; luciferase read-out
# RE007 growth inh: less growth of the S. pombe RE007 Vpr strain; S. pombe RE007 Vpr strain, BacTiter-Glo ATP luminescence, 24 h; control for the full effect not named in the record; Potency, µM (highest dose often 92.2 µM), for the others: top-dose activity change, negative = less growth; 360,000 tested, 0.21% active; active = well fitted falling curve with a large enough effect; inconclusive = small, poorly fitted or top-dose-only effect; inactive = no such curve, though single readings can be large or run the other way;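 further: on the % scale 0 is the no-effect control and ±100 the full control effect; nearly all actives have a fitted effect of over 50% in size; the assay follows cell death caused by Vpr and the record does not say whether a fall means rescue or toxicity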
#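 Fission yeast strain RE007, carrying one chromosomally integrated HIV-1 vpr copy, was seeded at OD 0.01 in PMG+AL medium with 23 nL pinned compound. After 24 h at 30 °C and 99% humidity, viability was read by BacTiter-Glo luminescence.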
# 2A StopGo: FMDV 2A StopGo reporter, luciferase signal; human cells with a luciferase reporter of 2A StopGo recoding; control for the full effect not named in the record; Potency, µM (series often up to 57.9 µM), for the others: top-dose signal change, negative = less light; 410,000 tested, 1.2% active; AID 1159524; active = well fitted falling curve with a large enough effect; inconclusive = small, poorly fitted or top-dose-only effect; inactive = no such curve, though single readings can be large or run the other way; tested in HEK293T cells; further: on the % scale 0 is the no-effect control and ±100 the full control effect; nearly all actives have a fitted effect of over 45% in size; luciferase light after 4 h
# * = called active by the depositor; u = inconclusive; x = not tested or not shown; & = joins results of further samples; [ ] = another dose, or the depositor's remark. Unless noted, the call rests on the fitted dose curve; in most records, active means well fitted rising curve with a large enough effect; inconclusive means small, poorly fitted or top-dose-only effect; inactive means no such curve, though single readings can be large or run the other way. Potency means the concentration at half of the fitted maximal effect.
SMILES | Cruzain Triton | Lassa entry inh | NS1 inh | Cruzain inh noDet | SARS PLP yeast | Marburg entry inh | RE007 growth inh | 2A StopGo
CCOC(=O)c1cccc(NC(=O)c2ccc(NC(=O)C3CCCO3)cc2)c1 (stereo not given) | x | -2%[46.1 µM] | -1% | x | -3% | u | -16% | -19%
CCN(CC)CCn1c2c(c(SCC(=O)Nc3ccc(F)c(F)c3)nc1=O)CCC2 | x | -19% | x | x | -4% | u | -1% | -7%
O=c1[nH][nH]c(-c2ccccc2)c1C=Nc1ccccc1Cl | -4.6% | 7% | 10% | -1% | -4% | 0% | 3% | -18%
COc1cc(/C=N\NC(=O)c2ccc(-c3ccccc3)cc2)cc(Br)c1O | x | -6% | 9% | x | 45% | u | 12% | -6%
CC(=O)c1ccc(S(=O)(=O)NCCC(=O)OCC(=O)N(Cc2ccccc2)C(C)(C)C)cc1 | x | -18% | x | x | 4% | u | 24% | -20%
Cc1ccc(NC(=O)CSc2nc(=O)n(CCN3CCOCC3)c3c2CCCC3)cc1 | x | 10% | x | x | 6% | 3% | -9% | -3%
COC(=O)c1cc(OC)c(OC)cc1NC(=O)CC1CCCCC1 | -4.2% | -6% | -8% | u | -10% | -4% | 14% | -4%
Cc1cccc(NS(=O)(=O)c2cccs2)c1 | -0.1% | -23% | -4% | 1% | 5% | 17% | 4% | 0%
CCC(C)NC(=O)CCCN1C(=O)CCn2nc(-c3cccn3C)cc21 (stereo not given) | -1.5% | 19%[46.1 µM] | x | -3% | x | x | x | 0%
CS(=O)(=O)c1ccc(-n2c(=O)n(Cc3ccccc3)c(=O)c3[nH]cnc32)cc1 | x | x | 3% | x | 1% | x | -3% | -4%
C=CCN1C(=O)NC(=O)C(CCc2ccncc2)(CCc2ccncc2)C1=O | x | 14% | -1% | x | 1% | 6%[46.1 µM] | -3% | 3%
N#Cc1c(-c2cccnc2)c2c([nH]c1=S)CCCC2 | -2.0% | 0% | 11% | -1% | 15% | -14% | 15% | -23%
Cc1cccc(NC(=S)Nc2cccc3ccccc23)c1 | x | 1%[46.1 µM] | -24% | x | 18% | -7%[46.1 µM] | 8% | 25%
CCc1nnc(NC(=O)c2cc(S(=O)(=O)N(CC)CC)ccc2Cl)s1 | -2.3% | 2% | 13% | -5% | 9% | -4% | 6% | -9%
O=C(O)CC1(CC(=O)Nc2ccc(Oc3cccc(C(F)(F)F)c3)nc2)CCCC1 | x | x | 5% | x | 2% | 0% | 4% | -10%
COc1ccc(NC(=O)c2ccco2)cc1NC(=O)c1c(OC)cccc1OC | -2.9% | u | 11% | -8% | 0% | -2% | 2% | 16%&1%
Cc1ccc(CN2CCNC(=O)C2CC(=O)NCc2cc(C)n(C)n2)cc1 (stereo not given) | x | -6% | 6% | x | 0% | -8% | -8% | -11%
CCOc1ccc(-c2cccc(NS(=O)(=O)c3ccc([N+](=O)[O-])cc3)c2)nn1 | x | 0% | x | x | -1% | 1% | 4% | 20%
CS(=O)(=O)N(CC(=O)NCc1cccnc1)C1CCCCC1 | x | -1% | 0% | x | -1% | u | 17% | 0%
CCN(CC)C(=O)c1sc2c(c1C)c(=O)n(-c1ccc(C)c(C)c1)c(=O)n2CC(=O)Nc1ccc(F)cc1 | -1.7% | 8%[46.1 µM] | x | u | x | x | x | 0%
COc1ccc(OCC(=O)N/N=C2/C=C(C)CC2)cc1 | x | -4% | 8% | x | -3% | 4%[46.1 µM] | 0% | 4%
O=C1c2cccnc2C(=O)N1c1ccccc1-c1ccccc1 | 0.5% | 18% | -11% | 2% | 3% | u | 21% | -4%
Cc1cccc(/C=N/NC(=O)CC(=O)NCCc2ccccc2)c1 | x | -11%[46.1 µM] | x | x | x | -31%[46.1 µM] | 1% | -1%
Cn1c(SCc2ccccc2)nccc1=O | x | -7% | x | x | x | -20% | -1% | 1%
Cc1ccc(NC(=O)CC(C)N2CCCC2)cc1 (stereo not given) | 7.2% | 4% | 2% | -3% | 6% | 8% | -7% | -17%
Cc1ccc2cccc(NC3OC(=O)c4ccccc43)c2n1 (stereo not given) | -1.3% | 2% | 23% | 19% | -4% | 0% | -2% | 11%
Cc1c2cnn(-c3ccccc3)c(=O)c2c(C)n1CC(=O)NCCc1ccc(Cl)cc1 | -3.9% | -5%[46.1 µM] | x | 12% | x | 21%[46.1 µM] | x | u
CC(C)OCCCNc1nc2c(c(=O)n(Cc3ccccc3F)c(=O)n2C)n1C | 0.1% | -1% | 1% | u | 5% | 9% | 2% | -22%
Cc1cc(C(=O)COC(=O)C2=COCCO2)c(C)n1-c1ccc2c(c1)OCO2 | -3.2% | -1% | -8% | -14% | -14% | 1% | 20% | 7%
COc1cc2nc(CN(C)Cc3ccc(F)cc3)[nH]c(=O)c2cc1OC | x | -16% | x | x | -2% | 2% | -1% | -23%
S=c1[nH]nc(-c2ccco2)n1/N=C/c1ccccc1Cl | 1.2% | 7% | 5% | 3% | -14% | 9% | 4% | 0%
COc1cccc(C(=O)Nc2cc(C)on2)c1OC | x | u | x | x | -3% | u | -3% | 41%[activator]

# Not a retest: two of the compounds above.
SMILES | Cruzain Triton | Lassa entry inh | NS1 inh | Cruzain inh noDet | SARS PLP yeast | Marburg entry inh | RE007 growth inh | 2A StopGo
S=c1[nH]nc(-c2ccco2)n1/N=C/c1ccccc1Cl | 1.2% | 7% | 5% | 3% | -14% | 9% | 4% | 0%
COc1cccc(C(=O)Nc2cc(C)on2)c1OC | x | u | x | x | -3% | u | -3% | 41%[activator]

# Next part
SMILES | Cruzain Triton | Lassa entry inh | NS1 inh | Cruzain inh noDet | SARS PLP yeast | Marburg entry inh | RE007 growth inh | 2A StopGo
COc1ccc(CCN(C)Cc2ccc(OC)c(OCc3ccccc3)c2)cc1OC | 2.3% | -1% | -1% | 10% | -6% | 18µM* | -23% | -24%
Cc1ccc(NC(=S)NNC(=O)c2c(Cl)c(C)nn2C)cc1 | -2.4% | u | -25% | -6% | 13% | -18% | -2% | 0%
CC(=O)N1c2ccc(S(=O)(=O)NC(CC(=O)O)c3ccc(Br)cc3)cc2CC1C (stereo not given) | x | x | 10% | x | 0% | x | 2% | -2%
Cc1ccc(-n2nnc3c(=O)n(CC(=O)NCc4ccccc4)cnc32)cc1 | x | x | 10% | x | 1% | x | -6% | 0%
O=C(O)/C=C/C(=O)NC1CCCCCCCCCCC1 | x | 4% | -4% | x | 0% | -2% | 3% | -16%
Cc1ccsc1/C=N/NC(=O)Cn1cnc2ccccc21 | -4.1% | 5% | 3% | 15% | 17% | 19% | -21% | -19%
Cn1cnnc1SCCCN1C(=O)c2cccc3cccc(c23)C1=O | x | x | 5% | x | -2% | x | 17% | 12%
Cc1oc(-c2ccccc2F)nc1CS(=O)CC(=O)NCc1ccc2c(c1)OCO2 (stereo not given) | 1.0% | x | u | -7% | 20% | -1% | -20% | -2%
O=C(CN1CCCC1)Nc1ccc(F)cc1 | x | -5% | 11% | x | 0% | -1%[46.1 µM] | 3% | 4%
Cc1cc(C)c(S(=O)(=O)c2ccc(C(C)(C)C)cc2)c(Cl)n1 | x | x | -1% | x | -8% | x | -3% | 0%
C=CCN1C(=O)C(C)(C)N(C(C)=O)c2ccccc21 | -0.7% | 9% | -5%&-5% | -5% | -7% | 4%&4% | -9% | 0%
Cc1cccc(NC(=S)N(CCN(C)C)C(C)c2ccco2)c1 (stereo not given) | 1.0% | -5% | -1% | -9% | -2% | -20% | x | 5%
CCCC(C)C(=O)Nc1ccc(S(=O)(=O)Nc2nccs2)cc1 (stereo not given) | x | 22% | 4% | x | 0% | u | 31% | 45%[activator]
Cc1ccc(NC(=O)COCC(=O)Nc2ccc(F)cc2)cc1 | x | x | -6% | x | -1% | x | -6% | 5%
Cc1cc(N2CCOCC2)ccc1/C=C1/SC(=O)NC1=O | x | u | x | x | 7% | -29%[46.1 µM] | 10% | 25%
O=C(O)c1cn(Cc2ccccn2)c(=O)c2ccccc12 | x | 2% | x | x | 0% | -1%[46.1 µM] | -21% | 15%
CCOc1ccc(NC(=O)NCCn2nnc3cc(S(=O)(=O)N(C)C)ccc32)cc1 | -1.3% | 3%[46.1 µM] | x | 15% | x | x | x | -6%
O=C(NCC1CCCCC1)c1cccc(Br)c1 | x | 0%[46.1 µM] | 4% | x | 1% | u | 4% | 0%
O=C1[C@H]2[C@@H](C3CC3)N3C(=O)CN(Cc4ccccn4)C(=O)[C@@]3(Cc3ccccc3)[C@H]2C(=O)N1c1ccccc1 | x | x | -3% | x | 1% | x | -10% | -7%
Cc1ccc(-c2cc(C(=O)NC3=NCCS3)c3ccccc3n2)cc1C | -18% | u | 0% | u | -71% | -52% | 3% | 15%
Cc1nn(-c2cccc(C(=O)O)c2)c(C)c1Oc1ccccc1O | 0.9% | 3% | 4% | -12% | 6% | 13% | -5% | -2%
CCCCN(C(=O)c1cc2ccccc2o1)c1c(N)n(CC(C)C)c(=O)[nH]c1=O | -1.6% | 9% | 19% | -15% | 9% | 18% | -7% | 0%
O=C(NN=C1CCCC1)c1ccccc1[N+](=O)[O-] | x | 15%[46.1 µM] | u | x | 4% | 3%[46.1 µM] | 6% | 6%
CCOC(=O)CSc1nc2c(c(=O)[nH]c(=O)n2C)n1Cc1ccccc1 | x | x | 14% | x | 3% | x | 6% | -18%
CCOC(=O)c1nc(Nc2ccc(C(=O)OCC(C)C)cc2)c2ccccc2n1 | -15% | -18%[46.1 µM] | x | u | x | u | x | u

# One compound at a time (already shown).
# Cc1nn(-c2cccc(C(=O)O)c2)c(C)c1Oc1ccccc1O reads Cruzain Triton: 0.9%; Lassa entry inh: 3%; NS1 inh: 4%; Cruzain inh noDet: -12%; SARS PLP yeast: 6%; Marburg entry inh: 13%; RE007 growth inh: -5%; 2A StopGo: -2%
# O=C1[C@H]2[C@@H](C3CC3)N3C(=O)CN(Cc4ccccn4)C(=O)[C@@]3(Cc3ccccc3)[C@H]2C(=O)N1c1ccccc1 reads Cruzain Triton: x; Lassa entry inh: x; NS1 inh: -3%; Cruzain inh noDet: x; SARS PLP yeast: 1%; Marburg entry inh: x; RE007 growth inh: -10%; 2A StopGo: -7%

# High-throughput results from PubChem BioAssay.
